Assay outcomes as filed in PubChem.
StopGo RLuc: Primary qHTS Assay for Foot and Mouth Disease Virus Antivirals against NCGC Sytravon and CBC Compound Libraries: Renilla Luciferase Signal; actives 0.32% (n = 120,000); AID 1745857, 2022; HEK cells with a luciferase reporter of 2A StopGo recoding; Potency, µM (top dose mostly 57.5 µM), without a hit: at the highest dose signal change, negative = less light; active means well fitted falling curve with a large enough effect; inconclusive means small, poorly fitted or top-dose-only effect; inactive means no such curve, though single readings can be large or run the other way; further: nearly all actives have a fitted effect of over 55% in size; overnight with compound
2A firefly: Primary qHTS Assay for Foot and Mouth Disease Virus Antivirals against NCGC Sytravon and CBC Compound Libraries: Firefly Luciferase Signal; HEK cells with a luciferase reporter of 2A StopGo recoding; AID 1745856, 2022; Potency, µM (highest dose often 57.5 µM), without a hit: at the top dose signal change, negative = less light; actives 0.23% (n = 120,000); active = well fitted falling curve with a large enough effect; inconclusive = small, poorly fitted or top-dose-only effect; inactive = no such curve, though single readings can be large or run the other way; further: nearly all actives have a fitted effect of over 60% in size; overnight with compound
Active calls of the source: *; ? = inconclusive; & = joins results of further samples; [ ] = dose if it differs, or a comment. On the % scale 0 is the no-effect control and ±100 the full control effect; potency means the concentration at half of the fitted maximal effect.

SMILES	StopGo RLuc	2A firefly
COc1ccc(CNC(=O)C2CCC(CNS(=O)(=O)c3ccc4c(c3)CCCC(=O)N4)CC2)cc1 (stereo not given)	12%	-7%
Nc1nc(N)c(S(=O)(=O)c2ccccc2)c(Nc2ccccc2)n1	101%[activator]	11%
O=C(/C=C/c1ccc(O)cc1)c1cccs1	81%[activator]	203%[activator]
CCN1CCN(Cc2ccc(CNC(=O)CC(F)(F)F)cc2)CC1	-11%	-13%
O=c1[nH]oc2c1CCNC2	-9%	37%[activator][11.5 µM]
Cc1nc(NCC(C)C)sc1C(=O)NCc1ccco1	80%[activator]	286%[activator]
COc1ccc(N2C(=O)CSC23C(=O)N(CC(=O)Nc2ccccc2OC)c2ccccc23)cc1 (stereo not given)	-2%	-1%
S=C(N/N=C1/CC2C=CCC12)NC1CCCCC1 (stereo not given)	-13%[1.06 µM]	10%
CCCCc1ccc(NS(=O)(=O)c2ccc(N3CCCCS3(=O)=O)cc2)cc1	144%[activator]	24%
O=C(Cn1c(=O)nc(-c2ccccc2)c2cc(Cl)ccc21)NCc1ccccc1	5%	4%
CC(C)Cn1cnc2c1c(=O)n(CC(=O)NCc1ccccc1)c(=O)n2CC(C)C	-15%	-15%
C#CCN1CCN(c2ccc(C#N)cc2F)CC1	-2%	11%
CCc1ccc(-c2cc(C(=O)OC)c3ccccc3n2)cc1	2%	169%[activator]
Cc1cccc(NC(=O)C2CCCN(S(=O)(=O)c3ccc4c(c3)oc(=O)n4C)C2)c1 (stereo not given)	-4%	6%
Cc1cc(Cl)ccc1OCC(=O)Nc1c(C(=O)c2ccccc2)oc2ccccc12	-14%	-7%
Cc1ccc(C(C)NC(=O)C2CCN(CC(C)C)CC2)s1 (stereo not given)	3%	-9%
CC(=O)c1ccc(NS(=O)(=O)c2ccc(-c3ccc(C)cc3)cc2)cc1	210%[activator]	37%[activator]
O=c1c2ccccc2cnn1CN1CCN(S(=O)(=O)c2cccc(Cl)c2)CC1	-6%	8%
CCC(=O)Nc1nc(C)c(-c2csc(Nc3ccc(OC)cc3)n2)s1	-23%	0%
COc1ccc(C2CCCN2C(=O)CSc2nnnn2C2CCCC2)cc1 (stereo not given)	-6%	-1%
C[C@H](N)[C@H](O)c1ccc(O)c(O)c1	-10%	?
COc1ccc(S(=O)(=O)c2cc3cc(OC)ccc3oc2=O)cc1	-5%&-3%	-4%&16%
C=CCNCc1ccc(OCC)cc1	6%	16%
O=C(c1ccc(Nc2nc3ccccc3n3nnnc23)cc1)N1CCN(c2ccc(F)cc2)CC1	9%	15%
COc1ccc(NC(=O)Cn2cc(S(=O)(=O)N3CCN(c4ccccc4F)CC3)c3ccccc3c2=O)cc1Cl	67%[activator]	1%
(listing goes on)
SMILES	StopGo RLuc	2A firefly
Cc1cccc(C(=O)N2CCN(Cc3ccc(-c4cccc(F)c4)s3)CC2)n1	?	10µM*
Cc1ccc(C)c(CN2C(=O)c3ccccc3S(=O)c3ccc(C(=O)N4CCN(c5cccc(Cl)c5)CC4)cc32)c1 (stereo not given)	-1%	-10%
CCOCCc1nn2c(=O)cc(COC(=O)c3ccco3)nc2s1	92%[activator]	-2%
CCc1ccccc1Nc1ncnc2c1cnn2-c1ccc(C)cc1C	-31%	-3%
CC(C(=O)Nc1ccc(F)c(Cl)c1)N1Cc2ccccc2C1=O (stereo not given)	35%[activator]	-6%
CCn1c(=O)cc(SCC(=O)NCCc2ccc(Cl)cc2)c2ccccc21	10%	-8%
CNC(=O)CSC12CC3CC(CC(C3)C1)C2	0%	0%
COc1ccc(NS(=O)(=O)c2cc(-c3cnc(C)o3)ccc2OC)cc1	303%[activator]	30%
COc1cc(OC)c(NC(=O)CCc2nnc(C(=O)Nc3ccc(C)cc3)s2)cc1Cl	-4%	152%[activator]
O=C(c1cc2cc(Cl)ccc2oc1=O)N1CCc2ccccc2C1	-6%	-1%
CN(C)CCN(Cc1ccccc1F)C(=O)c1cccc(S(C)(=O)=O)c1	-8%	69%[activator]
CC(=O)c1ccc(N2CCN(C(=O)CCc3ncc(-c4ccc(C)c(C)c4)o3)CC2)c(F)c1	-10%	2%
Cc1cccc(C)c1NC(=O)Cn1c(=O)cc(C(=O)N2CCCCC2)c2ccccc21	26%	18%
Cc1ccccc1CCNC(=O)c1ccc2c(c1)c(C)c(C)n2Cc1ccccc1	5%	7%
COc1cccc(-c2nnc(SCC(=O)NC3CCCCC3)o2)c1	10%	36%[activator]
Cc1cccc(CCNC(=O)CCc2c(C)nc3c4c(C)cc(C)nc4nn3c2C)c1	27%	36%
O=S(=O)(NCc1ccc2c(c1)OCCO2)c1ccccc1Cl	21%	33%[activator]
Cc1ccc(Cl)cc1N1CCN(C(=O)CCS(=O)(=O)c2ccc3c(c2)oc(=O)n3C)CC1	-5%	-10%
CCC(=O)N1CCc2cc(Br)c(S(=O)(=O)CCC(=O)NCCc3ccccc3)cc21	11%	-7%
Cc1ccc(CNC2C3CC4CC(C3)CC2C4)cc1 (stereo not given)	0%	5%
COCCN(CCOC)C(=O)C(C)(C)c1ccccc1	-1%	-4%
CC(C)NC(=O)C1CCN(C(=O)C(C)(C)C)CC1	1%	6%
Cc1cc(C)c(S(=O)(=O)N2CCCC2c2nc3ccccc3[nH]2)c(C)c1 (stereo not given)	3%	-1%
Cn1c(=O)ccn(CC(=O)Nc2nccs2)c1=O	-2%	5%
O=S(=O)(Nc1nc2ccccc2nc1NCC1CCCO1)c1ccc(F)cc1 (stereo not given)	68%[activator]	2%
More compounds.
SMILES	StopGo RLuc	2A firefly
COc1ccc(CNC(=O)c2cccc3cn[nH]c23)cc1	-3%	21%
Cc1c(Cl)c(CSc2nccn2C)nc2ccccc12	3%	109%[activator]
CC(C)Sc1nnc(-c2nn(Cc3ccccc3)c(=O)c3ccccc23)o1	47%[activator]	26%
CCc1ccccc1NC(=O)N1CCC(CN2CCc3ccccc3C2)CC1	-8%	-15%
O=C(NCCc1cnc(-c2ccccc2)[nH]1)c1ccc(Br)cc1	-13%	-14%
Cc1ccc(-n2nc(C)c(C(=O)NCCCN3CCN(c4ccccc4F)CC3)c2-n2cccc2)cc1	?	?
COc1cccc(NC(=O)Cn2nc3c4ccccc4n(Cc4cccc(F)c4)cc-3c2=O)c1	-14%	-14%
CCOc1ccccc1NC(=O)c1c(NCc2cccs2)sc2c1CCC(C)C2 (stereo not given)	25%	-23%
Cc1ccc(-c2cc(C(=O)NCc3ccccc3Cl)c3ccccc3n2)cc1C	16%	5%
CCCN(CCC)C(=O)Cn1c(SCc2cccc(C(F)(F)F)c2)nc2cccnc21	-8%	-13%
Clc1ccc2c(NN=C3CCCCC3)ccnc2c1	2%	23%
CCCc1nnc(N2C(=O)c3oc4ccc(F)cc4c(=O)c3C2c2ccc(C(=O)OC)cc2)s1 (stereo not given)	-7%	-11%
COc1cc(C(=O)NCC(c2cccs2)S(=O)(=O)c2ccc(F)cc2)cc(OC)c1OC (stereo not given)	7%	-13%
COC(=O)c1ccc(Cl)cc1NC(=O)N1CC(C)Oc2ccc(C)cc21 (stereo not given)	-8%	-12%
COc1ccc(NC(=O)NCCc2c(C)nn(C)c2C)c(OC)c1	0%	-6%
CCOC(=O)N1CCN(c2nc(C)c3c(n2)CC(/C=C/c2ccccc2)CC3=O)CC1 (stereo not given)	4%	17%
COCCNC(=O)Cn1c(-c2cccs2)cc2cc(Cl)ccc21	-16%	-1%
O=C1C=C(c2ccccc2)CC(c2ccc(Br)cc2)C1 (stereo not given)	14%	0%
CCc1ccc(NC(=O)COC(=O)CCCC2=NS(=O)(=O)c3ccccc3N2)cc1	-9%	13%
COc1ccc(NC(=O)C2CCCN(C(=O)c3cnn(-c4ccc(F)cc4)c3-n3cccc3)C2)cc1 (stereo not given)	8%	-8%
COc1cccc(-c2cc(C(F)(F)F)nc(N3CCN(Cc4ccccc4)CC3)n2)c1	2%	4%
Cc1oc(-c2ccccc2)nc1CC(=O)Nc1ccccc1F	0%	57%[activator]
CCN(CC(=O)NC(C)C)Cc1cccc2cccnc12	0%	6%
Cc1ccc(-c2csc3ncn(CC(=O)c4cc(C)n(C5CC5)c4C)c(=O)c23)s1	5%	18%
CCC1CN(S(=O)(=O)c2cc(-c3cc(C)no3)ccc2C)c2cc(C)ccc2O1 (stereo not given)	25%	30%
Following part
SMILES	StopGo RLuc	2A firefly
CCOc1ccc(C(=O)Nc2ccc3nc(SCC(=O)N4CCCC4)sc3c2)cc1	-11%	-6%
O=C(CCn1cnc2onc(-c3ccc(F)cc3)c2c1=O)N1CCN(c2ccccc2)CC1	-8%	-8%
Cc1nn(-c2ccccc2)cc1C(=O)N1CCC(C(C)C(=O)NCc2ccc3c(c2)OCO3)CC1 (stereo not given)	-5%	-10%
Cc1ccc(NC(=O)CC(C)(C)CC(=O)O)c(C)c1	13%	56%[activator]
CC1CCN(CCCNC(=O)CN2C(=O)CSc3ccc(S(=O)(=O)N4CCCCC4)cc32)CC1	-11%	-18%
Cc1ccc(Cn2cccc(C(=O)Nc3ccc(C)c(Cl)c3)c2=O)cc1	-8%	4%
Cc1oc(-c2nc(C#N)c(NCc3cccnc3)o2)cc1S(=O)(=O)N(C)c1ccccc1	3%	10%
CCOC(=O)c1cc(-c2ccc(S(=O)(=O)Nc3cccc(Cl)c3C)s2)on1	9%	5%
Cc1ccc(-c2c(C(=O)N3CCN(c4cc(Cl)ccc4C)CC3)oc(=O)c3ccccc23)cc1	-7%	-10%
O=C(CSc1nc2cc(Cl)ccc2s1)N1CCC(Cc2ccccc2)CC1	4%	5%
CC(C)CNC(=O)C(C)Sc1cc(C(=O)NC2CC2)c2ccccc2n1 (stereo not given)	3%	-3%
Cc1cc(C(F)(F)F)nc(SCC(=O)c2ccccc2)n1	13%	66%[activator]
O=C(C1CCCN(S(=O)(=O)c2cccc3nonc23)C1)N1CCN(c2cccc(Cl)c2)CC1 (stereo not given)	7%	-20%
CC(=O)c1ccc(OCc2ccccc2Cl)cc1	-1%	242%[activator]
COCCCNC(=O)CC(c1cc(OC)c(OC)c(OC)c1)N1Cc2ccccc2C1=O (stereo not given)	7%	-2%
COc1ccc(C(=O)Nc2c(NC3CCCCC3)c3ccccc3oc2=O)cc1	-2%	8%
CC(=O)c1c(C)[nH]c(C(=O)Cn2cnc3ccc(Cl)cc3c2=O)c1C	-1%	7%
O=C(NCc1cccc(F)c1)C1CCN(C(=O)c2sccc2-n2cccc2)CC1	-12%	0%
Cc1ccc2nc(C)cc(C(=O)NCCN3CCCCC3)c2c1	-16%	-14%
CC/C=C(/C)C(=O)NCCCN1CCCC1	2%	0%
Cc1ccc(OCC(O)CN2CCN(c3ccc(C(F)(F)F)cn3)CC2)cc1 (stereo not given)	4%	7%
Cc1ccccc1-c1nc(C(N)=O)c2c(n1)n(-c1ccc3c(c1)OCO3)c(=O)n2C	-6%	0%
O=C(COCc1nc2ccccc2s1)N1CCN(C2CCS(=O)(=O)C2)CC1 (stereo not given)	19%	0%
COc1cc(NC(=O)N2CCC(CN3CCCCCC3)CC2)cc(OC)c1OC	-5%	-15%
Cc1ccc(-c2c(CN3CCN(c4cccc(C)c4C)CC3)csc2C)cc1	5%	-13%

Structural class, those above containing a cyano group (2)
SMILES	StopGo RLuc	2A firefly
C#CCN1CCN(c2ccc(C#N)cc2F)CC1	-2%	11%
Cc1oc(-c2nc(C#N)c(NCc3cccnc3)o2)cc1S(=O)(=O)N(C)c1ccccc1	3%	10%

Another view of some results above:
mol | StopGo RLuc | 2A firefly
O=C(CCn1cnc2onc(-c3ccc(F)cc3)c2c1=O)N1CCN(c2ccccc2)CC1 | -8% | -8%
Cc1nn(-c2ccccc2)cc1C(=O)N1CCC(C(C)C(=O)NCc2ccc3c(c2)OCO3)CC1 (stereo not given) | -5% | -10%
Cc1ccc(NC(=O)CC(C)(C)CC(=O)O)c(C)c1 | 13% | 56%[activator]
CC1CCN(CCCNC(=O)CN2C(=O)CSc3ccc(S(=O)(=O)N4CCCCC4)cc32)CC1 | -11% | -18%

Further structures:
SMILES	StopGo RLuc	2A firefly
COc1ccc(NC(=O)Cn2c(=O)n(CCCC(=O)NCc3ccccc3OC)c(=O)c3ccccc32)cc1Cl	-12%	-18%
CCOc1ccc(CC(=O)NCCS(=O)(=O)N2CCN(c3ccc(OC)cc3)CC2)cc1	-10%	-8%
CCOc1ccc(C2(c3ccccc3OC)CCCC2)cc1	7%	12%
Cc1ccc(C(=O)C(C)n2cnc3c2c(=O)n(C)c(=O)n3C)cc1 (stereo not given)	-3%	9%
O=C(NCCC1=CCCCC1)c1ccc2c(c1)ncn2-c1ccc(F)c(F)c1	-7%	75%[activator]
O=C(Cn1cc(S(=O)(=O)N2CCN(c3ccccc3F)CC2)c2ccccc2c1=O)Nc1cccc(C(F)(F)F)c1	119%[activator]	-16%
COc1cc(COC(=O)c2ccc(S(=O)(=O)N3CCOCC3)cc2)ccc1OC(F)F	4%	21%
Cn1c(-c2ccccc2)c(C(=O)CSc2ncc(C(F)(F)F)cc2Cl)c2ccccc21	4%	7%
COc1ccc(/C=C/c2noc(-c3ccccc3O)n2)cc1OC	1%	?

Six structures from above, sorted by length of the SMILES, smallest number first:
SMILES	StopGo RLuc	2A firefly
O=c1[nH]oc2c1CCNC2	-9%	37%[activator][11.5 µM]
Cn1c(=O)ccn(CC(=O)Nc2nccs2)c1=O	-2%	5%
Cc1oc(-c2ccccc2)nc1CC(=O)Nc1ccccc1F	0%	57%[activator]
Cc1ccc(-c2c(CN3CCN(c4cccc(C)c4C)CC3)csc2C)cc1	5%	-13%
Cc1ccccc1-c1nc(C(N)=O)c2c(n1)n(-c1ccc3c(c1)OCO3)c(=O)n2C	-6%	0%
O=C(Cn1cc(S(=O)(=O)N2CCN(c3ccccc3F)CC2)c2ccccc2c1=O)Nc1cccc(C(F)(F)F)c1	119%[activator]	-16%
